D2 potentiator: Beta-Arrestin HTS for Positive Allosteric Modulators of the Human D2 Dopamine Receptor: Potentiators; D(2) dopamine receptor (Homo sapiens), P14416; DiscoveRx D2 beta-arrestin cells, luminescence, 90 min; 100% = 57 uM dopamine signal; potentiation, % (no concentration beside the values); 0.23% of 360,000 active; active = potentiation of 50% or more; inconclusive = 30% to 50%; inactive = 30% or less;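 note: compound concentration not given in the record; tested on top of an EC20 dose of dopamine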
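PathHunter D2 cells, attached overnight at 37 deg C, received compound in DMSO plus dopamine at EC20 (50 nM final) for 90 min at 37 deg C. Beta-arrestin recruitment was read as luminescence after 1 h with detection reagent at ambient temperature.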
CtBP-E1A blk: qHTS Assay for Inhibitors of the CtBP/E1A Interaction. AlphaScreen GST-E1A/His-CtBP binding, 1536-well; active compounds read low; control for the full effect not named in the record. activity change, % (concentration not given with the values). 0.49% of 340,000 active. CtBP / adenovirus E1A interaction (AlphaScreen); in the data active means activity change below about -65%; inconclusive means about -30% to -65%; inactive means above about -30%; note: % is set by controls: 0 for no effect and ±100 for the full control effect
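GST-E1A and His-tagged CtBP (125 nM each as 5X stock) were preincubated with pin-transferred compound for 2 h at 37 °C in the dark, then glutathione donor and nickel acceptor beads were added for 1 h before AlphaScreen reading.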
TRPML1 agonist: qHTS for Agonists of the Human Mucolipin Transient Receptor Potential 1 (TRPML1); 0.12% of 410,000 active; TRPML1-expressing cells, Ca2+ dye fluorescence, FDSS; host cell line not named in the record; reference of the full effect not given here; activation, % (no concentration beside the values); AID 624414, 2012; Mucolipin-1 (Homo sapiens), Q9GZU1; in the data active = activation above about 50%; inconclusive = about 30% to 50%; inactive = below about 30%; note: 0% is about no effect; the text of the record puts the active cut at 80%
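In this qHTS format, compounds were pin-transferred onto Ca8-dye-loaded TRPML1-DL cells induced with Tet overnight, and intracellular Ca2+ fluorescence was recorded kinetically for 110 s after a 10 s baseline. A subsequent 4uM final 54-4 (EC80) addition followed by a second 110 s read served as the antagonist phase.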
Six1-Eya2 inh: qHTS Assay for Inhibitors of the Six1/Eya2 Interaction; activity change, % (no concentration beside the values); Homeobox protein SIX1 (Homo sapiens) + Protein phosphatase EYA2 (Homo sapiens), …; AlphaScreen GST-Six1/His-Eya2 binding, biochemical; active compounds read low; control for the full effect not named in the record; 0.56% of 360,000 active; in the data active = activity change below about -65%; inconclusive = about -30% to -65%; inactive = above about -30%; note: % is set by controls: 0 for no effect and ±100 for the full control effect
Target sequence (O00167 whole entry, looked up): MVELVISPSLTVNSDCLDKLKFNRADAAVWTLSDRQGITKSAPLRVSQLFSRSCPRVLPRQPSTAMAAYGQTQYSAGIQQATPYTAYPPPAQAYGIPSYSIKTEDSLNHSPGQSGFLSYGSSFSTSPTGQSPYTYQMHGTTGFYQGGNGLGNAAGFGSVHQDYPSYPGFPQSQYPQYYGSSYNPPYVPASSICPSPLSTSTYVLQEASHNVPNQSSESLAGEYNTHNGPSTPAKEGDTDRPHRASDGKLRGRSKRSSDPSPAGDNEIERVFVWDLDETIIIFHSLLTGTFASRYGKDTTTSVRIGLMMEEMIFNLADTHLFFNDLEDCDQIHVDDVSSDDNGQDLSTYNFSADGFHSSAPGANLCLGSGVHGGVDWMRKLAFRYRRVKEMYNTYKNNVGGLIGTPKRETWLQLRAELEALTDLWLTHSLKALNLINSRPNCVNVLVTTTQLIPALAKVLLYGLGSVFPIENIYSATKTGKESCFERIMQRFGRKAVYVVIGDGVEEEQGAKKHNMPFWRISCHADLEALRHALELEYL
Target sequence (Q15475 whole entry, looked up): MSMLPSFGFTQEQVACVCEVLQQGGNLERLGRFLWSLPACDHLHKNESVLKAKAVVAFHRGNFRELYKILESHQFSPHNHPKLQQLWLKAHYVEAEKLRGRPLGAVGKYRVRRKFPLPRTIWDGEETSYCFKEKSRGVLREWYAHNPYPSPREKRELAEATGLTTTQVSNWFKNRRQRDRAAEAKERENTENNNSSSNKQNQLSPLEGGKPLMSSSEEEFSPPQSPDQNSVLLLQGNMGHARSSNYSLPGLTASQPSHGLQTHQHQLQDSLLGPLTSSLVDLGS
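Compounds are tested against tagged Six1 and Eya2 proteins bridged by glutathione donor and nickel acceptor beads; after a one-hour incubation at 37 °C without light, AlphaScreen emission is recorded.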
PINK1 expr mod: A Quantitative High throughput Screen to Identify Chemical Modulators of PINK1 Expression; PINK1 immunofluorescence, high-content cytometry, 24 h; Potency, µM (doses to about 76.6 µM), for the others: at the highest dose activation (PINK1 increase), usual class: activators; 0.2% of 410,000 active; AID 624263, 2012; active = well fitted activation curve with a large enough effect; inconclusive = small, poorly fitted or top-dose-only effect; inactive = flat fitted curve, though single readings scatter; cell line not stated here;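 note: potency is the fitted concentration of half-maximal effect; % of control where 0% means no effect; nearly all actives have a fitted effect of over 65% in size; a mitochondrial uncoupler was the plate control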
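Compound titrations (5 concentrations, 24 h) on a stable cell line; DMSO and CCCP controls. Endpoint: fixed-cell PINK1 immunofluorescence with mitochondrial, cell and nuclear markers, scanned by microplate cytometer.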
D2 agonist: Beta-Arrestin HTS for Positive Allosteric Modulators of the Human D2 Dopamine Receptor: Agonists; D(2) dopamine receptor (Homo sapiens), P14416; DiscoveRx PathHunter D2 beta-arrestin, luminescence, 90 min; 100% = 57 uM dopamine signal; activation, % (concentration not given with the values); 0.084% of 360,000 active; AID 624465, 2012; in the data active = activation above about 40%; inconclusive = about 15% to 40%; inactive = below about 15%; note: compound concentration not given in the record; the text of the record calls up to 30% inactive
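Agonist mode: compounds alone added to overnight-plated D2 PathHunter cells for 90 min at 37 C, with 57 uM final dopamine (EC100) defining full response. Beta-arrestin recruitment detected by chemiluminescent reagent, read after 1 h at ambient temperature.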
* hit, by the source's call; ? = inconclusive; · = no result given; [ ] = another dose, or the depositor's remark.

SMILES | D2 potentiator | CtBP-E1A blk | TRPML1 agonist | Six1-Eya2 inh | PINK1 expr mod | D2 agonist
CC(C)C(NC(=O)c1ccco1)C(=O)OCc1cc([N+](=O)[O-])cc2c1OCOC2 (stereo not drawn) | -17 | -2 | -0.6 | 0 | -1.9% | 5.1
CC(CC(=O)c1ccccc1)=NCCCN=C(C)CC(=O)c1ccccc1 | -10 | 2 | 0.2 | -17 | -0.2% | -3.8
CCOc1ccccc1NC(=O)CSc1nnc(CCC(=O)Nc2ccccc2F)n1C | 1 | -6 | 0.8 | 0 | -0.3% | -2.9
O=C(COC(=O)c1ccc(S(=O)(=O)N2CCCC2)cc1)Nc1ccc(N2CCOCC2)cc1 | -5 | · | -0.1 | -1 | 0.8% | 0.3
O=C(Cn1cc(COc2ccc(Cl)c(Cl)c2)nn1)NS(=O)(=O)c1ccccc1C(F)(F)F | -4 | -5 | -0.6 | 2 | 0.2% | -5.1
CCOc1ccccc1Nc1cc(C)c2cccc(C)c2n1 | -4 | 20 | 2.0 | 36 | 14% | -2.0
NS(=O)(=O)c1ccc(NC(=O)COc2cccc3ccccc23)cc1 | 5 | -6 | 0.3 | -6 | 3.5% | -2.4
CCCN(C)C[C@H]1Oc2cc(C#Cc3ccc(F)cc3)ccc2S(=O)(=O)N([C@H](C)CO)C[C@@H]1C | -5 | -13 | 0.3 | 5 | 2.0% | -0.8
CCn1ncc(/C=C/C(=O)NCc2cn(C)nc2C)c1C | 1 | 2 | 0.6 | 3 | 5.2%[38.3 µM] | 1.6
CC(C)(C)NC(=O)CSc1nnnn1C(C)(C)C | 2 | 1 | 0.3 | -1 | 1.5% | -1.3
CCOC(=O)Cn1c(=N)n(CCOc2ccc3ccccc3c2)c2ccccc21 | -37 | -17 | 0.4 | -16 | 2.0% | -10
COc1ccc(C(=O)/C=C/c2cccs2)c(OC(=O)c2cccc([N+](=O)[O-])c2)c1 | -5 | 1 | 0.0 | 7 | -1.9% | 0.2
COC(CNC(=O)c1ccc2c(=O)n(Cc3ccc(Cl)cc3)c(=S)[nH]c2c1)OC | 2 | 0 | -0.8 | 4 | 6.9% | -2.4
CCCCC(=O)Nc1ccc(C(=O)Nc2nnc(COC)s2)cc1 | -3 | 4 | 1.9 | 0 | 14%[38.3 µM] | 2.0
O=C(O)c1ccccc1-c1ccc([N+](=O)[O-])cc1Cl | -7 | -6 | -0.5 | 11 | -0.1% | -1.7
COc1ccc(C(=O)NC2CC2)cc1OC1CCN(Cc2ccc(F)cc2F)CC1 | -32 | 9 | -0.3 | 0 | -2.1% | -7.0
O=C(NNC(=O)c1cc(-c2ccccc2)nc2ccccc12)Nc1cccc(Cl)c1 | 3 | -6 | 2.1 | -1 | 16% | -2.1
COc1cc(C(=O)NCCC2=CCCCC2)cc(OC)c1OC | -14 | -1 | 0.1 | 5 | 0.7% | 0.0
CCOC(=O)N/N=C\c1sccc1C | -1 | 8 | -0.9 | -1 | -0.7% | 4.6
C=CCN1C2CCCC1CC(NC(=S)Nc1cccc(OC)c1)C2 (stereo not drawn) | 1 | -3 | -0.1 | -2 | -0.7% | 0.1
CNc1nc2c(c(=O)n(C)c(=O)n2C)n1CCCc1ccccc1 | -2 | -1 | -0.1 | ? | 2.0% | 8.5
CN(c1ccc(C(=O)N2CCCCC2)cc1)S(=O)(=O)c1cccs1 | -2 | -2 | 1.1 | 1 | 1.7% | -0.3
O=C1CCN(C(=O)Cc2ccccc2)c2ccccc21 | -9 | -14 | 0.1 | 3 | 0.1% | -7.0
CC1(C)Cc2cccc(OCC(=O)NCc3ccc(F)cc3)c2O1 | -11 | 3 | 1.0 | 6 | 3.2% | -1.7
CCN(C(=O)CSc1cccc[n+]1[O-])c1ccccc1 | -8 | 9 | 1.1 | -3 | -0.3% | -3.1
CCOC(=O)C1=C(C)NC(=O)NC1/C=C\c1ccccc1 (stereo not drawn) | -2 | 0 | 0.4 | 1 | 11% | 1.4
CCCOc1ccc(C(=O)Nc2ccc(S(=O)(=O)Nc3onc(C)c3C)cc2)cc1 | -5 | -3 | 0.7 | 7 | -0.8% | 3.4
O=C(O)c1cc([N+](=O)[O-])ccc1Oc1ccccc1 | -7 | -8 | 0.0 | 12 | -3.1% | -2.3
O=C(COc1nc2ccccc2nc1N1CCOCC1)N1CCc2ccccc21 | -10 | 8 | -0.2 | 6 | ? | -8.4
CCOC(=O)c1c(-c2ccc(OC)cc2)oc2c1C(OC(C)=O)CCC2 (stereo not drawn) | · | -2 | -1.0 | -1 | -0.5% | ·
CCN(CC)C(=O)CSc1ncnc2c1nnn2-c1ccc(F)cc1 | 6 | 10 | 1.3 | 0 | 0.4% | -2.2
Cc1cc(C(=O)COC(=O)C(C)NC(N)=O)c(C)n1Cc1ccco1 (stereo not drawn) | -4 | 2 | -0.7 | -2 | -1.7% | 5.7
COc1ccc(/C=C2\SC(=O)N(CC(=O)Nc3cccc(C)c3)C2=O)cc1O | -4 | -16 | -0.8 | -4 | 4.6% | ?
C=C(C)C1CC=C(C)/C(=N\NC(=S)Nc2ccc(C)cc2)C1 (stereo not drawn) | -16 | -20 | 0.8 | ? | 7.9% | -2.3
CCN(CC)Cc1cc(NC2=NS(=O)(=O)c3ccccc32)ccc1OC(=O)c1ccccc1 | -27 | 4 | -0.3 | -3 | 0.6% | -4.7
CCOC(=O)C1=C(CN2CCN(CCC#N)CC2)NC(=O)NC1c1ccc2c(c1)OCO2 (stereo not drawn) | -4 | 8 | 0.5 | 11 | -1.5% | -3.1
COc1ccc(CCn2c(N3CCN(C)CC3)nc3c2c(=O)[nH]c(=O)n3C)cc1 | -32 | 2 | -0.2 | -10 | 6.3% | -0.9
Cc1cccc(NC(=O)CN(C)S(=O)(=O)c2cccc3cccnc23)c1 | -11 | -14 | -0.3 | -13 | 2.2% | -4.7
COc1ccc(OC)c(N(CC(=O)O)S(=O)(=O)c2ccc(OC)c(OC)c2)c1 | -18 | 10 | -0.6 | 2 | · | 0.2
Cc1ccc(S(=O)(=O)N2CCC(c3nc4c(nnn4Cc4ccccc4)c(=O)[nH]3)CC2)cc1 | 8 | -8 | 3.3 | -4 | 2.0% | 4.3
CCOC(=O)c1c(C)[nH]c(C(=O)COC(=O)CNS(=O)(=O)c2ccc(C)cc2)c1C | -25 | 1 | 3.2 | -12 | 0.8% | -4.7
COc1cccc(C(=O)N2CCN(Cc3ccccn3)CC2)c1 | 0 | 6 | 0.1 | 2 | -2.8% | -4.2
O=C1CNC(=O)N1CC(O)Cn1c2ccccc2c2ccccc21 (stereo not drawn) | -6 | · | 0.1 | 4 | 0.4% | 1.6
Cc1ccc(Oc2nnc(-c3cccs3)c3ccccc23)cc1 | -18 | -8 | 0.5 | 0 | 15% | -3.0
Cc1c(Cl)cccc1NC(=O)CSc1nncn1-c1cccnc1 | -3 | 0 | 0.3 | -13 | 2.1% | -0.1
Cc1ccc(N2CC(C(=O)Nc3ccc(S(=O)(=O)N4CCCC4)cc3)CC2=O)cc1 (stereo not drawn) | -4 | -6 | 0.5 | -2 | -5.7%[38.3 µM] | 0.0
Cc1cccc(NCC(O)Cn2cnc3c2c(=O)n(C)c(=O)n3C)c1 (stereo not drawn) | -13 | 29 | -0.3 | 15 | 0.1% | -3.8
CCC(=O)NC(c1ccccc1)c1nc2ccccc2[nH]1 (stereo not drawn) | 2 | -9 | -0.3 | 7 | -0.4% | -1.7

Arranged by length of the SMILES (low to high): part of the list above.
SMILES | D2 potentiator | CtBP-E1A blk | TRPML1 agonist | Six1-Eya2 inh | PINK1 expr mod | D2 agonist
CCC(=O)NC(c1ccccc1)c1nc2ccccc2[nH]1 (stereo not drawn) | 2 | -9 | -0.3 | 7 | -0.4% | -1.7
Cc1ccc(Oc2nnc(-c3cccs3)c3ccccc23)cc1 | -18 | -8 | 0.5 | 0 | 15% | -3.0
Cc1c(Cl)cccc1NC(=O)CSc1nncn1-c1cccnc1 | -3 | 0 | 0.3 | -13 | 2.1% | -0.1
O=C1CNC(=O)N1CC(O)Cn1c2ccccc2c2ccccc21 (stereo not drawn) | -6 | · | 0.1 | 4 | 0.4% | 1.6
Cc1cccc(NCC(O)Cn2cnc3c2c(=O)n(C)c(=O)n3C)c1 (stereo not drawn) | -13 | 29 | -0.3 | 15 | 0.1% | -3.8
Cc1cccc(NC(=O)CN(C)S(=O)(=O)c2cccc3cccnc23)c1 | -11 | -14 | -0.3 | -13 | 2.2% | -4.7
COc1ccc(OC)c(N(CC(=O)O)S(=O)(=O)c2ccc(OC)c(OC)c2)c1 | -18 | 10 | -0.6 | 2 | · | 0.2
Cc1ccc(N2CC(C(=O)Nc3ccc(S(=O)(=O)N4CCCC4)cc3)CC2=O)cc1 (stereo not drawn) | -4 | -6 | 0.5 | -2 | -5.7%[38.3 µM] | 0.0
CCN(CC)Cc1cc(NC2=NS(=O)(=O)c3ccccc32)ccc1OC(=O)c1ccccc1 | -27 | 4 | -0.3 | -3 | 0.6% | -4.7
CCOC(=O)c1c(C)[nH]c(C(=O)COC(=O)CNS(=O)(=O)c2ccc(C)cc2)c1C | -25 | 1 | 3.2 | -12 | 0.8% | -4.7
Cc1ccc(S(=O)(=O)N2CCC(c3nc4c(nnn4Cc4ccccc4)c(=O)[nH]3)CC2)cc1 | 8 | -8 | 3.3 | -4 | 2.0% | 4.3

Next section
SMILES | D2 potentiator | CtBP-E1A blk | TRPML1 agonist | Six1-Eya2 inh | PINK1 expr mod | D2 agonist
CCc1ccc(NC(=O)CSc2nnc(C)c(=O)n2N)cc1 | -18 | -11 | 1.3 | -3 | -0.2% | -6.7
CCC(C)Sc1nnc(Cc2cc(=O)[nH]c(=O)[nH]2)n1-c1ccc(F)cc1 (stereo not drawn) | -7 | 3 | -0.6 | -2 | 0.0% | -3.8
Cc1cc(C)n2nc(C(=O)OCC(=O)Nc3ccc(Cl)cc3)nc2n1 | 0 | 0 | -0.1 | 1 | 1.4% | 0.6
O=C(Cc1ccccc1)Nc1c(C(=O)N2CCCCCC2)cnn1-c1ccccc1 | -8 | 1 | -0.7 | 1 | -1.9% | -0.8
Cc1nc(CS(=O)(=O)c2ccccc2)cc(Sc2ccccc2Cl)n1 | -10 | 4 | 0.0 | 4 | -1.0% | 1.8
CCCS(=O)(=O)NC(=O)C1(C)CCN(C(=O)COc2ccc(Cl)cc2Cl)C1 (stereo not drawn) | 60* | 1 | -0.4 | -2 | -0.6% | 14
Cc1cc(SC(C)C(=O)Nc2ncc(Cl)cc2Cl)nc2ccccc12 (stereo not drawn) | -4 | 9 | 0.7 | 12 | 7.3% | 0.1
O=C(NC1CC1)C1CCN(C(=O)c2ccccc2Cl)CC1 | -5 | 9 | 0.0 | 1 | -0.9% | -4.0

Screens as filed in PubChem BioAssay.
